GIRK2 activ: GIRK2 channel activation. HEK293-GIRK2 thallium flux, Thallos fluorescence. P48051. calls only for hits at 25 µM. actives 0.05% (n = 63,000);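 active means among the strongest 0.2% of first-round signals and kept after retests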;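 further: first round at about 10 µM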
Target sequence (P48051 whole entry, looked up): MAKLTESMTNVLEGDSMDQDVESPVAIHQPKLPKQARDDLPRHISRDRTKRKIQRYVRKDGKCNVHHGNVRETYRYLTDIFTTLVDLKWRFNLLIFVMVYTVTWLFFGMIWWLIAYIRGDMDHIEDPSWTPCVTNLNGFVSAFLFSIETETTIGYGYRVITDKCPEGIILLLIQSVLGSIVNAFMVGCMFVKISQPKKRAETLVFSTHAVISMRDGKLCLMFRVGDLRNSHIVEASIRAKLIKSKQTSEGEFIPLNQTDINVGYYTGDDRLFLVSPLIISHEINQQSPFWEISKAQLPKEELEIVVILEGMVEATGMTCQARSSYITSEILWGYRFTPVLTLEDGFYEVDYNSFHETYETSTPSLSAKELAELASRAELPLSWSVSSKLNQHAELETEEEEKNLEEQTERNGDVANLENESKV
Calls only; i = inactive. Some of the compounds tested; the hit share may differ from the screen's.

GIRK2 activ	structure
i	Cc1cccc(Oc2nccn3c(=O)n(CC(=O)Nc4ccc(F)c(Cl)c4)nc23)c1C
i	O=S(=O)(Cc1ccc(Cl)cc1)c1nc2ccccc2nc1N1CCC2(CC1)OCCO2
i	O=C(O)C1CCCN(S(=O)(=O)c2cc(Cl)cc(Cl)c2O)C1 (centres undefined)
i	Cc1cc2nc(C)c(CCC(=O)O)c(C)n2n1
i	COC(=O)Cn1c(=O)c2c(nc3n(-c4cc(C)ccc4OC)c(C)c(C)n23)n(C)c1=O
i	COc1ccc(CCNC(=O)NCc2sc(-c3ccco3)nc2C)cc1
i	CSCCC(C)(O)CNC(=O)Nc1ccc(C)c(C)c1 (centres undefined)
i	Cc1ccc(C)c(S(=O)(=O)NCC(=O)N2CCN(c3ccccc3)CC2)c1
i	COc1ccc(-c2cc(N3CCN(C(=O)c4ccc(Cl)c(Cl)c4)CC3)ncn2)cc1
i	Cc1ccc2nc(N3CC(C(=O)Nc4ccc5c(c4)OCO5)C3)sc2c1
i	CCOc1ccc(CNC(=O)c2c(S(=O)(=O)Nc3ccc(Cl)cc3)n[nH]c2C)cc1
i	Cn1nnn(-c2ccc(NC(=O)c3ccsc3)cc2)c1=O
i	Cc1cc(C)n(-c2ccc(C(=O)Nc3ccccc3-c3ccc(=O)[nH]n3)nn2)n1
i	Cc1cn2c3c(=O)n(CC(=O)OCc4ccccc4)c(=O)n(C)c3nc2n1CC(C)C
i	Cn1cc(-c2ccco2)nc1CCNC(=O)C(C)(C)Oc1ccc(Cl)cc1
i	CCC(C(=O)NCc1cc(C)oc1C)c1ccccc1 (centres undefined)
i	COc1ccccc1CNC(=O)c1ccc(-n2nc(C)cc2C)nn1
i	CSc1cccc(NC(=O)Cn2ccn3nc(-c4ccccc4)cc3c2=O)c1
i	CCC(C)C1NC(=O)C(CCC(=O)O)N(C)C(=O)C(C(C)C)N(C)C(=O)CNC(=O)C2CCCN2C(=O)C(Cc2ccccc2)NC(=O)C(C(C)CC)OC(=O)C(CCC(=O)O)N(C)C(=O)C(C(C)C)NC(=O)C2CCCCN2C1=O (centres undefined)
i	CCOC(=O)c1ccccc1NC(=O)CSc1nccnc1N1CCN(c2ccccc2)CC1
i	Cn1c(=O)c2c(nc3n2CCN3c2cccc(OCc3ccccc3)c2)n(C)c1=O
i	O=C(Nc1nc(-c2cc3ccccc3o2)cs1)c1cccs1
i	C=CCNC(=O)CN1CCC(Cn2c(COc3ccccc3)nc3ccccc32)CC1
i	Cc1noc(C)c1S(=O)(=O)N1CCN(c2cc(-n3ccnc3)ncn2)CC1
i	Cc1ccccc1N1CCN(c2nccn3c(=O)n(CC(=O)NC(C)CCc4ccccc4)nc23)CC1 (centres undefined)
i	COc1cccc(NC(=O)C2=Cc3cc(Cl)cc(OC)c3OC=C2)c1
i	COc1cccc(NC(=O)Nc2nccn(-c3cccc(Cl)c3)c2=O)c1
i	Cn1c(-c2ccccn2)nn(CCNC(=O)c2ccc(Cn3ccnc3)cc2)c1=O
i	COc1cc(S(=O)(=O)N2CCCCC2C)c(OC)cc1C (centres undefined)
i	COc1ccc(NC(=O)CN2CCC(C(=O)Nc3cccc(NS(C)(=O)=O)c3)CC2)c(OC)c1
i	O=C(O)C1CCCN1S(=O)(=O)c1cccc(Cl)c1 (centres undefined)
i	Cc1noc(C)c1CC(=O)NCC#CCOc1ccc2c(c1)OCO2
i	CSc1ccccc1NC(=O)Cc1sc(-c2ccccc2)nc1C
i	O=S(=O)(c1ccc(Cl)cc1)c1nc(NCc2cccnc2)sc1Cl
i	O=C(NCC1CCN(C(=O)c2cc3ccccc3o2)CC1)c1ccc(OC(F)(F)F)cc1
i	CSc1nnc(-c2ccccc2NC(=O)c2ccc(C)c(S(=O)(=O)N3CCCCC3)c2)o1
i	CC(=O)Nc1ccc(N/C=C(\C#N)c2nc(-c3cc4cc([N+](=O)[O-])ccc4oc3=O)cs2)cc1
i	Cc1cc(NC(=O)C2CCN(C(=O)NCc3cccs3)CC2)no1
i	COc1ccc(/C=C/C(=O)N2CCN(CCn3cccn3)CC2)cc1OC
i	CCCCCCCCCCCCCCOc1ccc(C(=O)O)o1
i	O=C(NCc1cccs1)N1CC(c2nc(-c3ccncc3)no2)C1
i	CN(C)S(=O)(=O)Oc1ccc2c(c1)OCO2
i	COc1ccccc1-c1ccc(=O)n(Cc2nc(-c3cccc(C(F)(F)F)c3)no2)n1
i	Cc1nc(NC(=O)c2ccc(-n3cccn3)nn2)sc1C(=O)N(C)C
i	C/C(=C/CO)CC[C@@H]1[C@@](C)(O)CCC2C(C)(C)CCC[C@]21C (some centres undefined)
i	CCOc1ccc(-n2nnc3c(=O)n(Cc4nc(-c5ccccc5Br)no4)cnc32)cc1
i	Cc1ccc(Cn2c(C3CC(=O)N(c4ccccc4)C3)nc3ccccc32)cc1 (centres undefined)
i	O=C(NCc1ccccc1)N1CCN(c2ccc(-c3ccc4c(c3)OCO4)nn2)CC1
i	CCn1c(=O)c2ccccc2n(Cc2nc(-c3ccc(C)cc3)no2)c1=O
i	Cc1ccc(CNc2nccn(-c3cccc(C)c3)c2=O)cc1

Remaining list, next part
GIRK2 activ	structure
i	CC(=O)OCCN1C(=O)c2cccc3c(N4CCCCC4)ccc(c23)C1=O
i	CC(C)c1ccc(N2CC(c3nc(-c4ccccn4)no3)CC2=O)cc1 (centres undefined)
i	Cc1nc(-n2cccc2)sc1C(=O)NCCOc1cccc2cccnc12
i	Cc1cn2c3c(=O)[nH]c(=O)n(C)c3nc2n1CCN1CCCC(C)C1 (centres undefined)
i	CC(=O)c1ccc(NC(=O)CSc2cc(-n3nc(C)cc3C)ncn2)cc1
i	O=C(NCc1ccco1)c1ccc(Cn2c(=O)[nH]c3ccccc3c2=O)cc1
i	Cc1nc(C)c(CC(=O)Nc2nc3c(s2)CCCC3)s1
i	COCCn1c(C(=O)Nc2ccccc2SC)cc2c(=O)n(C)c(=O)n(C)c21
i	COc1ccc(OC)c(S(=O)(=O)NCCn2nc(-c3ccccc3)ccc2=O)c1
i	COc1ccccc1CNC(=O)Cn1c(C)cc(C)c(-c2nc(-c3ccc4c(c3)OCO4)no2)c1=O

Sorted by molar mass (high to low): 16 of the compounds above.
GIRK2 activ	structure
i	CCOc1ccc(-n2nnc3c(=O)n(Cc4nc(-c5ccccc5Br)no4)cnc32)cc1
i	COc1ccccc1CNC(=O)Cn1c(C)cc(C)c(-c2nc(-c3ccc4c(c3)OCO4)no2)c1=O
i	COc1ccccc1-c1ccc(=O)n(Cc2nc(-c3cccc(C(F)(F)F)c3)no2)n1
i	O=C(NCc1ccccc1)N1CCN(c2ccc(-c3ccc4c(c3)OCO4)nn2)CC1
i	COc1ccc(OC)c(S(=O)(=O)NCCn2nc(-c3ccccc3)ccc2=O)c1
i	Cc1ccc(Cn2c(C3CC(=O)N(c4ccccc4)C3)nc3ccccc32)cc1 (centres undefined)
i	Cc1nc(-n2cccc2)sc1C(=O)NCCOc1cccc2cccnc12
i	O=C(NCc1ccco1)c1ccc(Cn2c(=O)[nH]c3ccccc3c2=O)cc1
i	CC(=O)OCCN1C(=O)c2cccc3c(N4CCCCC4)ccc(c23)C1=O
i	Cc1nc(NC(=O)c2ccc(-n3cccn3)nn2)sc1C(=O)N(C)C
i	CC(C)c1ccc(N2CC(c3nc(-c4ccccn4)no3)CC2=O)cc1 (centres undefined)
i	Cc1cn2c3c(=O)[nH]c(=O)n(C)c3nc2n1CCN1CCCC(C)C1 (centres undefined)
i	C/C(=C/CO)CC[C@@H]1[C@@](C)(O)CCC2C(C)(C)CCC[C@]21C (some centres undefined)
i	Cc1nc(C)c(CC(=O)Nc2nc3c(s2)CCCC3)s1
i	Cc1ccc(CNc2nccn(-c3cccc(C)c3)c2=O)cc1
i	CN(C)S(=O)(=O)Oc1ccc2c(c1)OCO2

Carrying on:
GIRK2 activ	structure
i	O=C(Nc1ccccc1F)N1CC(c2nc(-c3cnccn3)no2)C1
i	CCCCC[C@](C)(O)/C=C/[C@H]1[C@H](O)CC(=O)[C@@H]1C/C=C\CCCC(=O)O
i	COc1ccc(-c2noc(C3CC(=O)N(c4cc(Cl)ccc4OC)C3)n2)cc1OC (centres undefined)
i	COCCN(Cc1ccncc1)C(=O)c1cc(-c2cc(OC)ccc2OC)nn1C
i	CNC(=O)C1CCC(Cn2c(=O)c3sccc3n(CC(=O)Nc3ccc(C)c(C)c3)c2=O)CC1 (centres undefined)
i	COc1ccc(CC(=O)Nc2cc(C3CC3)nn2-c2nc(-c3ccccc3)cc(=O)[nH]2)cc1
i	COCCN(Cc1ccncc1)C(=O)C1CC1
i	O=C(NCCC1=CCCCC1)C(=O)NCC1(CO)CC1
i	CC(Cc1cccs1)NC(=O)Cc1ccc(SC(C)C)cc1 (centres undefined)
i	Cc1nc(C)c(C(=O)Nc2ccc(SCc3ccc(F)cc3)nn2)s1
i	Cn1nc(-c2ccccc2)cc1C(=O)N1CCC(c2nnc(-c3ccco3)o2)CC1
i	Cn1c(C2CCC(CNC(=O)CC3CSc4nccc(=O)n43)CC2)nc2ccccc21 (centres undefined)
i	COc1ccc(CC(=O)Nc2cccc(N3CCCS3(=O)=O)c2)cc1
i	Cc1ccc(-c2cc3c(=O)n(Cc4nc(-c5ccc(OC(C)C)cc5)oc4C)ccn3n2)cc1
i	CCOC(=O)Nc1nc(CC(=O)NCCn2nc(-c3ccco3)ccc2=O)cs1
i	Cc1nc(NC(=O)CNC(=O)c2c[nH]c3ccccc23)sc1C(=O)N(C)C
i	COc1ccc(C)c2sc(N3CCN(C(=O)c4snnc4C)CC3)nc12
i	COC(=O)c1ccccc1NC(=O)c1csc2nc(-c3ccc(F)cc3)cn12
i	CC(=O)CC1(O)C(=O)Nc2ccc(Cl)cc21 (centres undefined)
i	CCN(CC)CCN1C(=O)C(O)=C(C(=O)c2cccs2)C1c1ccc(F)cc1 (centres undefined)
i	CCCc1cc(=O)[nH]c(-n2nc(C3CC3)cc2NC(=O)c2ccc(S(=O)(=O)N3CCCC3)cc2)n1
i	COc1ccc(S(=O)(=O)N2CCCOC2CNC(=O)C(=O)NCCCO)cc1OC (centres undefined)
i	NC(=O)CN1CCN(CC(O)c2cccs2)CC1 (centres undefined)
i	Cn1cc(C(=O)OC2CN(c3nc4c(F)cc(F)cc4s3)C2)nn1
i	O=C(Cn1cnc2c(cnn2CCO)c1=O)Nc1cc(C(F)(F)F)ccc1Cl
i	O=S(=O)(c1ccc(C2CCCCC2)cc1)N1CCCC1
i	COCCN(CCOC)Cc1cc(=O)oc2cc(C)c(O)cc12
i	COc1ccc(C2(CNS(=O)(=O)c3ccc4c(c3)CCCC4)CCOCC2)cc1
i	CCN1C(=O)C(C)(C)COc2ccc(NC(=O)Nc3cc(OC)c(OC)c(OC)c3)cc21
i	CCOC(=O)N1CCC(NC(=O)c2cn(-c3ccc(C)cc3)nn2)CC1

Overlap with the part before: 2 entries, then new ones.
GIRK2 activ	structure
i	CCN1C(=O)C(C)(C)COc2ccc(NC(=O)Nc3cc(OC)c(OC)c(OC)c3)cc21
i	CCOC(=O)N1CCC(NC(=O)c2cn(-c3ccc(C)cc3)nn2)CC1
i	COc1cc(Nc2ncc3c(C)nc(-c4cccc(Oc5ccccc5)c4)n3n2)cc(OC)c1OC
i	O=C(NCC#CCOc1ccc2c(c1)OCO2)NCCc1ccccc1
i	COc1ccc(C)cc1NC(=O)C(=O)NCCC(O)c1ccccc1 (centres undefined)
i	COc1ccc(-c2nc(CNC(=O)C(C)n3nc(-c4ccccc4)ccc3=O)cs2)cc1 (centres undefined)
i	Cc1ccc(C(O)=C2C(=O)C(=O)N(c3cc(C)on3)C2c2ccccc2F)cc1 (centres undefined)
i	COC(=O)COc1ccc2c(c1)O/C(=C\c1ccc(OC)c(OC)c1OC)C2=O
i	O=C(O)Cc1ccccc1Nc1ccccc1
i	COc1cccc2cc(C(=O)N3CCN(Cc4c(C)noc4C)CC3)c(=O)oc12
i	O=C(Cn1nc2c(N3CCOCC3)nccn2c1=O)Nc1ccccc1Br
i	O=C(CSc1nnc2c(=O)n(-c3cccc(F)c3)ccn12)c1ccc(F)cc1
i	CCc1nnc2c(S(=O)(=O)N(Cc3ccccc3C)c3ccc(Cl)cc3)cccn12
i	Cc1ccc(-c2nc(CN3N=NC4C(=O)N(c5ccc(C(C)C)cc5)C(=O)C43)c(C)o2)cc1 (centres undefined)
i	O=C(Nc1ccc(CC(=O)N2CCCC2)cc1)c1cc(C2CC2)on1
i	O=S(=O)(NCc1ccc(F)cc1F)C1CC1
i	CNCCCC12CCC(c3ccccc31)c1ccccc12
i	COc1ccccc1NC(=O)NCCCn1ncccc1=O
i	O=C(C(=O)N1CCN(Cc2ccccc2)CC1)c1cn(CC(=O)N2CCOCC2)c2ccccc12
i	Cn1c(=O)[nH]c(=O)c2c1nc(NCc1cccnc1)n2CC(O)COc1ccc(Cl)cc1Cl (centres undefined)
i	O=C(Nc1cccc2ccccc12)c1ccoc1COc1ccccc1
i	O=C(Cc1ccc(NC(=O)Nc2cccc(C(F)(F)F)c2)cc1)NCc1cccs1
i	CCCCNC(=O)c1cccc(-n2ccnc2SCC(=O)Nc2ccccc2F)c1
i	COc1ccc(Cl)cc1C(=O)NCCCn1ccnc1-c1ccccc1
i	O=C(Nc1nc2c(s1)CN(C(=O)c1cnn(-c3ccccc3)n1)CC2)c1ccco1
i	O=C(Nc1nc2c(s1)CCCC2)C1COCC(=O)N1Cc1cccs1 (centres undefined)
i	COc1ccc(-c2cc3ccc(OCC(N)=O)cc3oc2=O)c(OC)c1
i	COc1ccc(S(=O)(=O)N2CCN(c3ccc(-c4ccc(Cl)cc4)nn3)CC2)cc1
i	O=C(CCn1ccc(=O)[nH]c1=O)Nc1cc(N2CCOCC2)ncn1
i	O=C(NCC(O)c1ccc2c(c1)CCO2)Nc1ccccc1Cl (centres undefined)
i	O=C(O)c1cc2cc(Cc3cccnc3)ccc2o1
i	Cn1cc(OCc2ccc(F)cc2)c(=O)cc1C(=O)Nc1ccc(Cl)c(Cl)c1
i	Cc1cc(=O)[nH]c(-n2nc(-c3ccco3)cc2NC(=O)COc2ccc(C(C)C)cc2)n1
i	CCOc1ccc(-c2n[nH]c(C)c2-c2ccccc2OC)c(O)c1
i	O=S(=O)(NCc1ccccn1)c1cccc2cccnc12
i	CCCCCC(O)/C=C/C1=C(CCCCCCC(=O)O)C(=O)CC1 (centres undefined)

Bioassay records (PubChem BioAssay)
